MenB inh – inhibitors of Mycobacterium tuberculosis MenB enzyme | inhibition, %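 (about 12 µg/mL by stock and volumes)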 | MenB enzyme assay, absorbance read-out; some hits fall short of the stated cut | AID 540299 | 0.43% of 100,000 active | P9WNP5;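 active = mean of two replicates above 30%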;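 note: 0% = no compound and 100% = wells with inactive enzyme; the first replicate is given; strong numbers were not always called active; inactives centre near -10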
Mtb MbtI inh – MbtI salicylate synthase inhibition | 0.89% of 100,000 active | purified MbtI enzyme, fluorescence intensity read-out | inhibition, %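 (about 17 µg/mL by stock and volumes)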 | AID 493033;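 active = above 50% in both replicates, above 80% if mildly self-fluorescent; inactive = the rest, strongly fluorescent compounds included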;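 note: 0% = mean of negative and 100% = mean of positive controls; one replicate is shown; some compounds called inactive have numbers as strong as hits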
Target sequence (P9WFX0 whole entry, looked up): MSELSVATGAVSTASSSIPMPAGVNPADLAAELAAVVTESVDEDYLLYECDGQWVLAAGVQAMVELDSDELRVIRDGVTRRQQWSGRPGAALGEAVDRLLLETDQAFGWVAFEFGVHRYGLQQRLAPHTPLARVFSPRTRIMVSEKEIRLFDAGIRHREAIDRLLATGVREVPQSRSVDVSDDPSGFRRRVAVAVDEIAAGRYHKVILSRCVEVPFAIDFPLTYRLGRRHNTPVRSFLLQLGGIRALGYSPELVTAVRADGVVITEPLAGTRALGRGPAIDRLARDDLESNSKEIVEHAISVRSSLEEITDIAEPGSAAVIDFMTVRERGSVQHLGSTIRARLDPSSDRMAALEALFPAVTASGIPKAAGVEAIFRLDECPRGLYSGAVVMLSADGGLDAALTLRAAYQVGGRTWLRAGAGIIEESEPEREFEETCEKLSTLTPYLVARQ
PV pol inh – poliovirus RNA polymerase inhibition; P03300; poliovirus polymerase elongation, fluorescence polarization; active compounds read low; % elongation, % (compound at 16.7 µg/mL); 0.66% of 150,000 active; AID 588519; in the data active = % elongation below about 90%; note: some results filed as inactive read as strong as hits
Target sequence (P03300 1749-2209 limits assumed): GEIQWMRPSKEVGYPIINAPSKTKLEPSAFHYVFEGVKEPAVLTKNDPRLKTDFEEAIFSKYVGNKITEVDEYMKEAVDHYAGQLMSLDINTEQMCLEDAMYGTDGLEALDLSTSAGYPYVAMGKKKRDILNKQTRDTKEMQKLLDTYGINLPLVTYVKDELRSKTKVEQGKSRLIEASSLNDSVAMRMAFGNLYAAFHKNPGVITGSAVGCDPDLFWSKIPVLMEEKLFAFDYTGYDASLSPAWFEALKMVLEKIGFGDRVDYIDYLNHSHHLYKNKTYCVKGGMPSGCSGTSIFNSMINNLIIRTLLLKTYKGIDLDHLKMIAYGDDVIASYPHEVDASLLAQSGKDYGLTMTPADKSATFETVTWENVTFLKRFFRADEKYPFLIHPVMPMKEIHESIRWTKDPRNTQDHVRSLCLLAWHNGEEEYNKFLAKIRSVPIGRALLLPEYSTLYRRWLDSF
PV pol inh intensity – second read-out of PV pol inh, no call of its own (marks repeat the call); % elongation; measured here: total intensity read-out; formula for this scale not given here;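 total fluorescence in place of polarization; lower means less elongation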
Starred values were filed as active, the others as inactive; x = no result given.

smiles	MenB inh	Mtb MbtI inh	PV pol inh	PV pol inh intensity
COc1ccc2nc(NC(=O)CCCCl)sc2c1	x	-2	101	105
c1ccc(-c2cn(-c3ccccc3)c3ncnc(NCCCN4CCOCC4)c23)cc1	-5	-32	101	103
c1ccc2c(c1)ncn2CCn1cnc2ccccc21	-2	2	103	101
Cc1n[nH]c(C)c1C(C)C(=O)N1CCN(c2ccccn2)CC1 (stereo not given)	-8	85	100	103
CSc1cccc(NC(=O)C2CCN(S(=O)(=O)c3c(C)n[nH]c3C)CC2)c1	-25	-10	101	105
CCc1nnc2c(N(C)C3CCCCC3)nc3ccccc3n12	-20	12	102	100
Cc1ccc(CN(C2CCCC2)S(=O)(=O)c2ccc(S(=O)(=O)N3CCCC(C)C3)cc2)o1 (stereo not given)	-141	-8	105	103
O=C(CSc1nnc2sc3ccccc3n12)N1CCc2ccccc2C1	0	x	96	95
O=C1C2ON(c3ccccc3)C(c3ccncc3)C2C(=O)N1c1cccc(C(F)(F)F)c1 (stereo not given)	0	-5	100	101
CCNc1nc2[nH]c(=O)c3c(c2s1)OC(N)=C(C#N)C3c1ccc(C)cc1 (stereo not given)	11	10	99	106
O=C(O)c1ccccc1-c1ccc(/C=N/N2C(=O)C3C4C=CC(C4)C3C2=O)o1 (stereo not given)	1	x	107	105
COC(=O)C(C)N1C(=O)S/C(=C/c2cc(C)n(-c3ccc4c(c3)OCO4)c2C)C1=O (stereo not given)	-83	-2	103	102
CC(C)(C)OC(=O)Nc1ncnc2c1ncn2C1OC(CO)C2OC(C)(C)OC21 (stereo not given)	-8	-11	106	104
OCCSc1ncnc2sccc12	-4	20	99	105
Cc1ccc(NC(C)C(=O)N/N=C/c2cccnc2)cc1 (stereo not given)	5	6	100	102
c1ccc(C(c2ccccc2)N2CCC2)cc1	2	6	102	97
CCN(CC)C(=O)n1nnc2ccccc21	-18	-5	102	101
Fc1ccc(Cc2nn[nH]n2)c(Cl)c1	-2	-9	100	109
O=C(C1=C(O)/C(=C/c2cccc(O)c2)CCC1)C(F)(F)F	-17	3	102	102
O=C(NCc1ccccc1)Nc1ccccc1	-3	0	105	108
Fc1cccc(F)c1CSc1nc2ccccc2[nH]1	-7	-17	102	104
O=C(Cn1ccc(=O)[nH]c1=O)NC1CCCCCC1	7	3	102	108
Cc1cc(C)n(-c2ccc(C(=O)NC(C)c3ccc(S(N)(=O)=O)cc3)cc2)n1 (stereo not given)	-13	1	106	105
CCCN1C(=S)NC2c3ccccc3OC1(C)C2C (stereo not given)	-34	2	102	99
CC/C(O)=C1/C(=O)CC(C)(C)CC1=Nc1cccc2ccccc12	x	-8	99	108
CCOC(=O)c1oc2ccc(Br)cc2c1COC(=O)c1cccnc1Cl	-8	-3	103	108
O=C(c1cccnc1)N1N=C(C(F)(F)F)CC1(O)c1cccnc1 (stereo not given)	-17	17	99	102
Cc1cc(C)n(-c2ccc(C(=O)O)cc2)n1	x	4	101	104
NC(=O)C(Cc1ccccc1)NC(=O)C12CC3CC(CC(C3)C1)C2 (stereo not given)	6	x	103	95
CSc1ccc(C=Nc2ccc(C)c(C)c2)cc1	-6	x	104	108
O=C(Nc1ccc(N2CCOCC2)cc1N1CCOCC1)c1ncoc1-c1ccccc1F	-38	8	103	103
CCOC(=O)c1c(CSC(=N)N)n(-c2ccc(OC)cc2)c2cc(Br)c(OC(C)=O)cc12	-53	23	100	103
O=C(NCCC1=CCCCC1)c1ccccc1	-4	0	103	100
COC(=O)Cn1ncc(N2CCc3ccccc3C2)c(Cl)c1=O	-2	19	100	108
Cc1ccc2nc(C)c3c(c2c1)OCN(CC1CCCO1)C3 (stereo not given)	4	34	98	98
Cc1ccc(S(=O)(=O)C(C#N)=C2N(C)c3ccccc3N2C)cc1	1	-14	99	130
CN(C(=O)c1ccco1)c1ccccc1C(=O)NCc1ccccc1	3	-16	101	103
Cc1cc(C)cc(NC(=O)N(CCC(=O)O)Cc2ccccc2)c1	-17	4	101	95
O=S(=O)(NCCc1ccccc1)c1cccc(S(=O)(=O)N2CCOCC2)c1	14	-8	100	100
CC(=O)N1CCN(c2ncc(Cl)cc2Cl)CC1	-9	-2	106	105
N#Cc1ccccc1OCC(=O)NC1(C#N)CCCC1	-15	-3	99	100
CCCNC(=O)c1ccc2c(c1)N(Cc1ccccc1)C(=O)c1ccccc1S2=O (stereo not given)	-9	12	99	98
O=C(NCc1ccc(-c2cccs2)cc1)C1=Cc2ccccc2OC1	-6	-8	100	114
Cn1/c(=N/N=C/c2ccc(N3CCOCC3)cc2)sc2ccccc21	-18	-2	105	110
CC(NC(=O)c1ccc(C(=O)NC(C)c2ccccc2)s1)c1ccccc1 (stereo not given)	x	6	101	102
O=C(O)c1ccc2cc[nH]c2c1	-19	105	102	94
COc1ccc(CCNC(=O)CSc2nc(C)nc3c2c(=O)n(C)c(=O)n3C)cc1OC	-30	-7	103	106
COC(=O)C1CNCCS1 (stereo not given)	-20	1	103	106
CC(=O)Nc1cccnc1NC(C)=O	-13	13	100	101
Cc1cc(=O)[nH]c(SCc2nc3ccccc3s2)n1	1	11	99	103
CC1(C)CC(=O)C2=C(C1)Nc1ccc3ncccc3c1C2c1ccc(O)c(O)c1 (stereo not given)	-118	59	101	85
Cc1ccc(C2=NN(C(=O)COC(=O)C3CCN(S(=O)(=O)c4cccs4)CC3)C(c3ccco3)C2)cc1 (stereo not given)	-38	53	104	111
CCOc1ccc(C2C=C(N)Oc3nc(COC)[nH]c32)cc1OC (stereo not given)	-13	x	106	117
COC(=O)c1c(O)c2ccccc2[nH]c1=S	7	97	102	103
COCCn1cnc2c1c(=O)n(Cc1ccc(Br)cc1)c(=O)n2Cc1ccccc1	-29	-1	100	98
CC1=C(C#N)C(c2ccc(Cl)cc2)C(C(=O)Nc2ccccc2)=C(C)N1 (stereo not given)	x	50	101	108
O=C(O)C1CCCc2c1[nH]c1ccc(Cl)cc21 (stereo not given)	-9	x	104	101
Cc1ccc(Nc2nc(N)nc(CN3CCN(S(=O)(=O)c4ccc5c(c4)CCC5)CC3)n2)cc1	-31	5	103	108
COc1ccc(N=C2SC(C(=O)O)CC(=O)N2C)cc1 (stereo not given)	8	-1	102	100
COCCCNc1oc(-c2ccccc2)nc1S(=O)(=O)c1ccccc1	-22	-31	101	102

An excerpt from above in order of SMILES length, low to high.
smiles	MenB inh	Mtb MbtI inh	PV pol inh	PV pol inh intensity
COC(=O)C1CNCCS1 (stereo not given)	-20	1	103	106
N#Cc1ccccc1OCC(=O)NC1(C#N)CCCC1	-15	-3	99	100
Cc1ccc(S(=O)(=O)C(C#N)=C2N(C)c3ccccc3N2C)cc1	1	-14	99	130
CCCNC(=O)c1ccc2c(c1)N(Cc1ccccc1)C(=O)c1ccccc1S2=O (stereo not given)	-9	12	99	98

Next records:
smiles	MenB inh	Mtb MbtI inh	PV pol inh	PV pol inh intensity
Cc1noc(/C=C/N(C)C)c1S(=O)(=O)NCCN1CCN(c2ccccc2F)CC1	-9	-24	100	101
CCCCn1c(NC(=O)c2ccc(Br)o2)c(S(=O)(=O)c2ccc(C)cc2)c2nc3ccccc3nc21	-13	-5	109	104
NCCN1C(=O)S/C(=C/c2cccs2)C1=O	-14	x	109	108
COc1ccc(CNC(C)C2CC2)cc1 (stereo not given)	9	0	96	102
CN1C(C(=O)NCC2CCCO2)=CC(c2cccs2)=NS1(=O)=O (stereo not given)	-37	7	103	97
N#Cc1c(NC(=O)C2c3ccccc3Oc3ccccc32)oc(-c2ccco2)c1-c1ccco1	-10	-102	117	126
CN=C(Cl)c1ccco1	-5	6	99	97
O=C(CC(=O)NC1CCCCC1)NC1CCCCC1	x	-4	99	99
CN1CCC(=NNC(=O)CN(c2cccc(Br)c2)S(C)(=O)=O)CC1	6	6	101	104
CC12CC(c3ccccc3O1)N(C(=O)c1ccccc1)C(=O)N2c1ccccc1 (stereo not given)	-13	-4	100	98
CC(Sc1nnc(-c2cccs2)n1-c1ccccc1)C(=O)c1c(N)n(C)c(=O)n(C)c1=O (stereo not given)	-16	1	100	98
CCCCNC(=O)Nc1sccc1C#N	-9	3	101	99
O=C1N/C(=C/c2ccc(O)cc2)C(=O)N1Cc1ccc(Br)cc1	-23	24	106	101
NC(=O)CN1CCN(Cc2cccc3ccccc23)CC1	-16	-3	100	103
Cc1ccc(Nc2nc(CN(C)CCCc3[nH]nc(N)c3C#N)cs2)cc1	-44	-11	99	106
CC(Cc1cccs1)C(=O)O (stereo not given)	6	-6	100	100
CCn1c2ccccc2c2cc(C=C(C#N)C#N)ccc21	6	5	100	108
O=C(/C=C/c1ccccc1)Oc1ccc2ccccc2c1	2	11	101	98
CC(=O)NC(=S)N1CCCc2ccccc21	-18	19	99	102
COc1ccc(C2C3=C(CCCC3=O)Nc3n[nH]c(-c4ccc(Cl)cc4)c32)cc1OC (stereo not given)	-27	-38	106	108
CCOc1ccc(C(=O)NC(C)c2ccccc2)cc1 (stereo not given)	-23	x	105	103
CCC(=O)Nc1cccc(C(=O)Nc2cc(C)on2)c1	-67	48	103	103
CC(CO)(CO)NC(=S)Nc1ccc(F)c(Cl)c1	0	55*	107	111
O=C(Nc1ccccc1)N1c2ccccc2CCc2ccccc21	5	8	101	90
CCn1c(CSc2nc3ccccc3s2)nnc1SCC(=O)c1ccc(O)c(O)c1	-10	9	108	98
CCOC(=O)C1=NN(c2ccccc2)CC1C(=O)OC (stereo not given)	-33	x	99	98
CCC(Oc1ccccc1)C(=O)Nc1ccc(Cl)cn1 (stereo not given)	-24	-4	104	100
Cc1ccc(SCCn2cc(S(=O)(=O)N3CCCC3)ccc2=O)cc1	-9	-3	102	101
N#Cc1ccccc1OCCCn1cnc2ccccc2c1=O	-8	-12	104	103
CC1C/C(=C/c2ccco2)C(=O)/C(=C/c2ccco2)C1 (stereo not given)	-103	22	77	189

Random excerpt: 2 entries already listed.
smiles	MenB inh	Mtb MbtI inh	PV pol inh	PV pol inh intensity
Cc1noc(/C=C/N(C)C)c1S(=O)(=O)NCCN1CCN(c2ccccc2F)CC1	-9	-24	100	101
CCOC(=O)C1=NN(c2ccccc2)CC1C(=O)OC (stereo not given)	-33	x	99	98

Additional structures
The line under a structure holds: MenB inh | Mtb MbtI inh | PV pol inh | PV pol inh intensity
- COc1ccc(/C=C/C(O)=C2/C(=O)N(C)C34CCCC3C2c2ccccc2O4)cc1 (stereo not given)
  -4 | -3 | 102 | 107
- CCOc1ccc2c(c1)C(=O)c1cc(OCC)ccc1-2
  2 | 1 | 99 | 104
- COc1cc(C(=O)O)ccc1OCc1ccccc1
  x | -6 | 100 | 101
- O=C(O)c1cccnc1SC1CC(=O)N(C2CCCC2)C1=O (stereo not given)
  0 | -4 | 99 | 102
- CCC1CN(C(=O)NC2CCCC2)c2ccccc2O1 (stereo not given)
  -6 | -5 | 101 | 101
- c1ccc(Cc2nc3ccc4[nH]snc4c3n2)cc1
  -26 | 22 | 104 | 106
- CCC(C(=O)N1CCN(CC)CC1)c1ccccc1 (stereo not given)
  2 | -18 | 101 | 104
- COc1ccc(N2C(=O)CC(N(O)c3ccccc3)C2=O)cc1 (stereo not given)
  -5 | 2 | 100 | 103
- Cc1cccc(-n2cnc3cc(C(=O)NCCC4=CCCCC4)ccc32)c1
  -1 | 7 | 99 | 93
- CC1=Nc2ncnn2C(c2ccccc2)/C1=N\O (stereo not given)
  -93 | 9 | 102 | 106
- CC(C)c1ccc(NC(=S)NN2CCOCC2)cc1
  8 | -6 | 100 | 101

Single records, as listed above:
`COc1ccc(/C=C/C(O)=C2/C(=O)N(C)C34CCCC3C2c2ccccc2O4)cc1` (stereo not given) across the screens: MenB inh: -4; Mtb MbtI inh: -3; PV pol inh: 102; PV pol inh intensity: 107
`CCC(C(=O)N1CCN(CC)CC1)c1ccccc1` (stereo not given) across the screens: MenB inh: 2; Mtb MbtI inh: -18; PV pol inh: 101; PV pol inh intensity: 104

High-throughput results deposited in PubChem by ICCB-Longwood Screening Facility, Harvard Medical School.
